BJeLR viability: BJeLR cell viability loss; 0.17% of 300,000 active; inhibition, % (no concentration beside the values); BJeLR (HRASV12) viability, CellTiter-Glo ATP luminescence, 48 h; reference of the scale not given here; AID 1554;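 active = replicate mean above 50%; inconclusive = above 50% but judged a plate artefact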;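 note: 50 nL library stock added to about 25 µL; numbers are from one replicate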
Mtb hypoxia rep: Mtb hypoxia fluorescent reporter inhibition. fluorescence inhibition, % (test concentration not listed). M. tuberculosis hypoxia-regulated fluorescent reporter, fluorescence. 0.1% of 300,000 active;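 active = 35 to 45% if threefold the growth effect, above 45% if 1.5-fold the growth effect; inactive = the rest, general growth blockers included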;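 note: wells of about 50 µL received 100 nL stock; 0% = vehicle wells and 100% = reference inhibitor wells; whole bacteria with a GFP reporter of the hypoxia response; strong numbers were not always called active; many hits fall short of the cut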
PrP 5UTR inh: inhibition of PrP 5' UTR reporter expression. AID 488862. cell-based PrP 5' UTR mRNA reporter, plate reader. 0.35% of 340,000 active. inhibition, % (test concentration not listed);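 active = every replicate at 50% or more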;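 note: 0 = median of the neutral control wells; tested in H4 reporter cells; numbers are from one replicate; inactives centre near -14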
Sa ugtP lethal: growth inhibition of S. aureus ugtP deletion strain | S. aureus RN4220 ugtP deletion, OD600 growth, 16 h; some inactives read as strong as hits | growth inhibition, % (test concentration not listed) | 0.54% of 330,000 active;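 active = z-score under -3 and OD600 up to 0.15 on both plates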;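 note: plate controls were untreated wells for no effect and antibiotic for full effect; wells of about 80 µL received 100 nL stock; the first replicate is given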
Sa RN4220 lethal: S. aureus RN4220 growth inhibition | 0.33% of 330,000 active | OD600, 16 h | inhibition, % (no concentration beside the values) | AID 1259311;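 active = z-score of -3 or lower and OD600 up to 0.18 on both plates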;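 note: plate controls were untreated cells for no effect and reference antibiotic for full effect; stock transfer was 100 nL into about 80 µL; one replicate is shown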
Autofluor counter: flagged as autofluorescent in microsphere protease counterscreen; compound autofluorescence counterscreen, microsphere flow cytometry; active compounds read high; fluorescence intensity (concentration not given with the values); AID 624483; 3.1% of 360,000 active;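 active = at least 3 SD above the mean of all compounds, about 16000 in these data; inconclusive = too few beads counted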;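 note: 100 nL of 1 mM stock went into each well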
Mtb hypoxia rep growth: also measured in Mtb hypoxia rep; calls as there; growth inhibition, %; measured here: M. tuberculosis growth (absorbance);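 0% = vehicle and 100% = reference antibiotic; read after six days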
* marks the source's active call; other numbers are inactive results; ? = inconclusive; · = no result given. Outcome played no part in choosing rows. About 4% of those tested had a hit in this group.

Compound,BJeLR viability,Mtb hypoxia rep,Mtb hypoxia rep growth,PrP 5UTR inh,Sa ugtP lethal,Sa RN4220 lethal,Autofluor counter
COc1ccc(NC(=O)c2cc3c(CO)cnc(C)c3oc2=Nc2cc(OC)cc(OC)c2)cc1,9,11,5,1,5,2.9,3701
COc1ccc(C(=O)NN=C(C)c2cccc(NC(=O)C(F)(F)F)c2)cc1,·,4,5,·,-7,4.8,·
O=C(COC(=O)c1ccc(Br)cc1)NCC1CCCO1 (stereo unspecified),·,6,10,-9,4,3.6,3648
CCCCn1c(SCC(=O)NCc2ccc3c(c2)OCO3)nnc1C(CC)N(C)C (stereo unspecified),·,0,-7,-14,7,1.6,5464
CCOP(=O)(O)c1cccc(OCCOCCOc2cccc(P(=O)(O)OCC)c2)c1,-1,10,0,-5,1,1.3,4127
CC(C)(C)C1c2[nH]c3ccccc3c2CCN1Cc1cccc(OCCO)c1 (stereo unspecified),-8,-1,-3,-23,-11,12,6857
C=CCN1c2ccccc2[C@]23C[C@@H](C(=O)OC)N(C(=O)c4cccs4)C2=NC(C(=O)OC)=C(C(=O)OC)[C@H]13,-9,·,·,-19,·,·,3524
CCCCC(=O)N(c1ccc(OCC)cc1)C1C=CS(=O)(=O)C1 (stereo unspecified),-3,0,12,-15,7,1.1,10421
CC(=O)Nc1ccc(S(=O)(=O)Nc2ccc(=O)n(Cc3ccc(Cl)c(Cl)c3)c2)cc1,1,4,1,-10,0,-0.4,2451
CCN(CC(=O)Nc1c(F)cccc1F)C(=O)C1CC(=O)N(c2ccc3c(c2)OCCO3)C1 (stereo unspecified),5,-11,0,-28,-1,-3.8,4558
Cc1ccc(F)cc1NC(=O)C1CCCN(c2ncccn2)C1 (stereo unspecified),-7,6,7,-31,5,5.3,20027*
Cc1nc(NCCOc2ccccc2)sc1C(=O)Nc1ccccc1,15,9,5,-70,4,3.0,4669
CCCCCn1c(N)c(-c2nc3ccccc3o2)c2c([N+](=O)[O-])nn(CC)c(=O)c21,7,11,-1,-4,-10,-2.1,1938
Cc1onc(-c2ccccc2)c1-c1csc(N/N=C/c2ccccc2Cl)n1,-4,·,·,-20,·,·,4676
COC(=O)c1c(NC(=O)C(=O)N2CCOCC2)sc2c1CCC2,6,5,-8,-7,12,0.5,4296

(continued)
Compound,BJeLR viability,Mtb hypoxia rep,Mtb hypoxia rep growth,PrP 5UTR inh,Sa ugtP lethal,Sa RN4220 lethal,Autofluor counter
Cc1ccc(C)c(Nc2ncnc3nc[nH]c23)c1,-4,2,1,-29,-1,-1.3,4256
COc1cc(C=O)ccc1OCCOCCOc1ccccc1Cl,11,·,·,-9,0,1.8,4833
Cc1cc(C)n2nc(-c3ccc(Br)cc3)cc2n1,3,1,0,-68,-14,-0.6,3452
O=C1CSC(c2ccccc2)N1c1ccc(F)cc1F (stereo unspecified),-5,9,9,-30,11,2.0,3100
CC1CC(C)CN(C(=O)C2CCN(S(=O)(=O)c3ccc4c(c3)CC(C)N4C(=O)C3CC3)CC2)C1 (stereo unspecified),-1,3,4,-11,10,2.1,5207
O=S(=O)(NC1=NCCCCC1)c1ccc(F)cc1F,·,11,11,-21,-1,-3.8,8999
Cc1nc2ccc(C(=O)N3CCN(c4ccccn4)CC3)cc2s1,-1,·,·,-12,9,1.1,2237
O=C(OCC(=O)N(C1CCCCC1)C1CCCCC1)c1ccc(O)cc1,-6,2,7,-25,3,1.9,4407
Cc1cc(C)c2oc(-c3cccc(NC(=O)c4ccc(F)cc4)c3)nc2c1,10,·,·,-19,7,-0.2,2796
COC(=O)C(NC(=O)c1ccccc1)c1ccccc1 (stereo unspecified),-4,8,8,-17,3,1.9,25637*
CSc1ccc(CCNC(=O)CCc2nnc3ccc(N4CCCCC4)nn23)cc1,4,15,8,-17,8,3.6,4274
O=C(c1cc(COc2cccc(C(F)(F)F)c2)on1)N1CCC(c2ccccc2)CC1,-2,2,3,-5,-11,-2.6,5013
CC(C)c1ccc(N2C(=O)NC(=O)/C(=C/C=C/c3ccco3)C2=O)cc1,18,1,2,-18,-3,-4.6,1984
O=C(CN1CCN(c2nc(-c3ccccc3)cs2)CC1)NNC(=O)c1ccc(Br)cc1,-1,3,-1,-27,9,-4.8,8073
Cc1ccc(OCCn2cc(/C(N)=N/O)c3ccccc32)cc1C,-5,-3,-3,-18,76,2.6,17016*

(listing goes on)
Compound,BJeLR viability,Mtb hypoxia rep,Mtb hypoxia rep growth,PrP 5UTR inh,Sa ugtP lethal,Sa RN4220 lethal,Autofluor counter
CC(C)(C)c1ccc(NC(=O)c2c(F)cccc2Cl)cc1,4,-2,4,-35,10,5.0,6418
COC(=O)c1ccc(N2CCN(S(=O)(=O)c3ccc4ccccc4c3)CC2)c([N+](=O)[O-])c1,1,9,5,3,6,3.8,3434
Cc1cc(N2CCC(C)CC2)n2nc(C)c(-c3ccccc3)c2n1,-14,-10,5,-8,18,-0.8,4407
CN1CCN(c2ccccc2NC(=O)c2cccc([N+](=O)[O-])c2)CC1,8,14,10,-3,5,10,3821
Cc1ccc(-n2c(SCC(=O)NN=Cc3ccccc3OCC(=O)O)nc3ccccc3c2=O)cc1,·,9,4,·,3,1.2,·
CCC(C)n1cnc2c(c1=O)c1nc3ccccc3nc1n2Cc1ccc(OC)cc1 (stereo unspecified),-7,0,6,-4,6,3.5,5181
COC(=O)c1sccc1NC(=S)N1CCC(C)CC1,-9,11,9,-24,13,7.1,11831
COC(=O)c1cc2sccc2n1CC(=O)Nc1cccc(SC)c1,-12,-4,2,-1,-7,2.7,9030
O=C(N1CCCCCC1)N1CCN(S(=O)(=O)c2cccc([N+](=O)[O-])c2)CC1,15,9,3,-9,6,-0.1,4211
COc1ccc(/C=C(\NC(=O)c2cccs2)C(=O)Nc2ccc(C)cc2)cc1OC,-6,-4,-5,-31,26,6.2,8541
COc1ccc2c(-c3ccc(OCCN4CCOCC4)cc3)c(-c3ccccc3OC)sc2c1,·,3,4,-12,64,5.0,2946
COc1cc([N+](=O)[O-])c2ncsc2c1,2,10,11,-36,15,8.5,2503
N#CCSc1nc2cc(C(=O)N3CCCC3)ccc2c(=O)n1Cc1ccccc1,4,·,·,-7,2,-6.7,4971
c1csc(Cc2nn3c(-c4n[nH]c5c4CCC5)nnc3s2)c1,4,·,·,-17,-8,4.4,3256
CC1CCN(Cc2c(O)ccc3c2O/C(=C\c2ccco2)C3=O)CC1,-4,·,·,-2,·,·,2456

Single records, as listed above. Values in the order: BJeLR viability | Mtb hypoxia rep | Mtb hypoxia rep growth | PrP 5UTR inh | Sa ugtP lethal | Sa RN4220 lethal | Autofluor counter
`COc1ccc(/C=C(\NC(=O)c2cccs2)C(=O)Nc2ccc(C)cc2)cc1OC` as listed: -6 | -4 | -5 | -31 | 26 | 6.2 | 8541
`Cc1cc(N2CCC(C)CC2)n2nc(C)c(-c3ccccc3)c2n1` as listed: -14 | -10 | 5 | -8 | 18 | -0.8 | 4407

(next part)
Compound,BJeLR viability,Mtb hypoxia rep,Mtb hypoxia rep growth,PrP 5UTR inh,Sa ugtP lethal,Sa RN4220 lethal,Autofluor counter
CNC(=O)c1[nH]nc2c1CCc1cc(OC)ccc1-2,7,-2,-2,-23,16,-0.2,3862
Cc1cc(Nc2ccc(Cl)cc2)nc(N2CCOCC2)n1,-5,6,13,-19,-7,5.3,5962
O=C(Nc1cccc(-c2cscn2)c1)C1CCN(Cc2ccc(CO)o2)CC1,-4,9,5,-18,6,-0.7,6033
O=C(c1ccc(F)cc1)N1CCCN(c2nc(-c3ccccc3)ns2)CC1,-1,4,-3,-40,-3,4.9,4753
COc1ccc(NS(=O)(=O)c2cc3c(cc2C)NC(=O)CO3)c(OC)c1,-1,7,4,-35,-6,-8.2,5815
CSc1ccc(C(=O)C2CCCN(C(=O)c3ccc(C)nc3)C2)cc1 (stereo unspecified),2,13,6,-21,5,3.5,3124
Cc1c(Cl)c([N+](=O)[O-])nn1CC(=O)N1CCc2ccccc2C1,-10,·,·,-12,2,1.5,2159
CCCCCCC(=O)N1CCC(c2nc3c(nnn3Cc3ccccc3Cl)c(=O)[nH]2)CC1,-4,0,0,·,50,-3.4,8543
O=C(COc1ccc(F)cc1)NCCN1CCCC1,-3,2,-4,-21,7,-0.6,4144
COc1ccc(CN(C)C2CCN(C)CC2)cc1OC,-5,11,5,-4,3,3.6,4078
Cc1sc2ncnc(N3CCC(C(=O)Nc4ccc(OC(F)F)c(Cl)c4)CC3)c2c1C,·,-2,7,-36,-20,-11,3867
Cc1ccc(/C=C2\SC(=S)N(CCC(=O)NNC(=O)c3cccc(O)c3)C2=O)cc1,0,2,0,-18,-6,-1.0,5499
O=C(NCC1CCCN1S(=O)(=O)c1cccs1)C(=O)Nc1ccccc1 (stereo unspecified),2,4,2,-27,1,0.2,?
O=C(CCCOc1ccc(Cl)cc1Cl)NN=Cc1ccc(Cl)cc1,·,-4,3,·,-33,-8.6,·
O=C(CSCCO)N1CCc2ccccc21,-1,4,9,-19,2,0.2,3821

More structures:
Compound,BJeLR viability,Mtb hypoxia rep,Mtb hypoxia rep growth,PrP 5UTR inh,Sa ugtP lethal,Sa RN4220 lethal,Autofluor counter
CCCc1cc(SCC(=O)Nc2c(C)n(C)n(-c3ccccc3)c2=O)n2c(nc3ccccc32)c1C#N,2,12,9,·,-2,3.5,·
CCOc1cc(C(=O)Nc2cc(C(=O)OC)ccc2C)ccc1OCC(=O)N1CCOCC1,·,-6,2,-12,2,-1.4,3827
Cc1ccc(Cl)cc1NC(=O)CCC(=O)NCc1ccco1,9,2,-3,-11,5,5.8,·
Cc1ccccc1Nc1nc(N)nc(COC(=O)c2cccc(S(=O)(=O)N(C)c3ccccc3)c2)n1,-2,-1,7,-6,-7,8.3,2639
Cc1ccccc1Nc1nc(N)nc(CSc2nc3ccccc3c(=O)n2CCCO)n1,3,-2,10,-1,-9,1.5,12709
CCn1c(C)cc(O)cc1=O,-5,16,13,10,10,4.1,4023
COc1cc(/C=N/NC(=O)C2(O)c3ccccc3-c3ccccc32)ccc1O,-9,·,·,2,·,·,7325
Cc1cccc(N2CCN(C(=O)c3cc4cc(F)ccc4[nH]3)CC2)c1C,5,16,4,-23,5,3.4,3734
CC(=O)c1cccc(NC(=O)c2cc3nc(C)cc(C)n3n2)c1,-8,·,·,-82,-9,-2.7,4771
COc1ccc(Cl)cc1N1C(=O)c2cccnc2C1=O,-4,-8,0,-4,-2,-1.6,3777
O=C(NN=Cc1ccc(OC(F)F)cc1)c1ccc(NS(=O)(=O)c2cccs2)cc1,·,13,9,-21,-4,0.9,4098
O=C(CSc1nnc(-c2ccccc2)o1)N1CCCCC1,-12,·,·,-54,-2,3.2,5639
CC(=O)NCCc1nc2cc(NC(=O)c3ccccc3)ccc2n1C,-5,9,-2,-45,4,8.2,3996
O=C(NNS(=O)(=O)c1ccc(Cl)cc1)c1cccs1,-6,-1,2,-14,4,3.1,3471
CCOC(=O)C1CCN(C(=O)Cn2nc(C)n3nc(-c4ccc(OC)cc4)cc3c2=O)CC1,-11,-4,6,-4,2,2.1,6005

The list goes on.
Compound,BJeLR viability,Mtb hypoxia rep,Mtb hypoxia rep growth,PrP 5UTR inh,Sa ugtP lethal,Sa RN4220 lethal,Autofluor counter
O=C(COc1ccccc1[N+](=O)[O-])Nc1cccnc1,·,16,4,-42,4,6.3,3724
S=C(NCCc1ccccc1)N1CCCCC1,6,4,2,-71,1,0.9,2551
COCCNC(=O)CN(C(=O)CCC(=O)Nc1cc(C)on1)c1cccc(C)c1C,-3,-3,1,-14,-5,-1.3,3707
Cc1[nH]n(-c2ccccc2)c(=O)c1N=Nc1ccc(Cl)cc1,10,1,-2,-17,1,4.8,3909
COc1cc(C(=O)NCCC(=O)N2CCN(C)CC2)cc(OC)c1OC,-3,-2,16,-17,0,-1.0,5080
Cn1cc[n+](C)c1P(=S)(c1ccccc1)c1ccccc1,·,7,8,-22,5,7.2,3173
CN(CC1CCOCC1)C(=O)CC1C(=O)NCCN1CC1CCCCC1 (stereo unspecified),8,-6,2,-17,5,1.0,4662
CC1CN(C(=O)CCC(=O)N2CCCCC2)c2ccccc2O1 (stereo unspecified),5,6,4,-21,0,3.0,6015
CSc1ccc(CN2CCN(C(=O)Cc3ccccc3)CC2)cc1,-3,8,-12,·,17,1.2,·
C[N+](C)=C1SCC(C)(/C=N/O)S1 (stereo unspecified),-8,·,·,-15,·,·,5046
O=C(NCCNC1CCC(c2ccccc2)CC1)c1cccs1 (stereo unspecified),9,-6,11,-18,23,6.0,3239

Screening data from PubChem.
